Source: PubChem BioAssay (National Center for Advancing Translational Sciences (NCATS))
ClpP mod = qHTS Assay for Activators of ClpP; ATP-dependent Clp protease proteolytic subunit (Bacillus subtilis (strain 168)), P80244; purified B. subtilis ClpP, FRET peptide cleavage, 20 min; Potency, µM (titrated, usually from 57.5 µM), without a hit: top-dose activity change, negative = active; 340,000 tested, 1.9% active; active = well fitted falling curve with a large enough effect; inconclusive = small, poorly fitted or top-dose-only effect; inactive = no such curve, though single readings can be large or run the other way; further: potency means the concentration at half of the fitted maximal effect; the source files actives as falling curves though it sought activators and does not explain the sign; nearly all actives have a fitted effect of over 65% in size; many hits overshoot -100%
Target sequence (P80244 whole entry, looked up): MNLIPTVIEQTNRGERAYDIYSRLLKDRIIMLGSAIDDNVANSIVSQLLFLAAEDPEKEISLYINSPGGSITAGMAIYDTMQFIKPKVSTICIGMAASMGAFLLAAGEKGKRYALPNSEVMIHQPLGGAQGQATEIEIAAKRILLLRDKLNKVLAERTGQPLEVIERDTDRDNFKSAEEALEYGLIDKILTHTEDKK
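FRET quenching reversal measured ClpP activation: 10 microg/mL B. subtilis ClpP at pH 8 with the FRET-FV decapeptide, read at 430 nm after 320 nm excitation. The 20-min minus 0-min signal was scaled between DMSO/no-enzyme wells and ADEP (5.8 microM final).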
D2 potentiator = potentiates the human D2 dopamine receptor allosterically | P14416 | DiscoveRx D2 beta-arrestin cells, luminescence, 90 min; 100% = 57 uM dopamine signal | potentiation, % (no concentration beside the values) | 360,000 tested, 0.23% active | AID 624464; active = potentiation of 50% or more; inconclusive = 30% to 50%; inactive = 30% or less;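 further: compound concentration not given in the record; tested on top of an EC20 dose of dopamine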
Target sequence (P14416 whole entry, looked up): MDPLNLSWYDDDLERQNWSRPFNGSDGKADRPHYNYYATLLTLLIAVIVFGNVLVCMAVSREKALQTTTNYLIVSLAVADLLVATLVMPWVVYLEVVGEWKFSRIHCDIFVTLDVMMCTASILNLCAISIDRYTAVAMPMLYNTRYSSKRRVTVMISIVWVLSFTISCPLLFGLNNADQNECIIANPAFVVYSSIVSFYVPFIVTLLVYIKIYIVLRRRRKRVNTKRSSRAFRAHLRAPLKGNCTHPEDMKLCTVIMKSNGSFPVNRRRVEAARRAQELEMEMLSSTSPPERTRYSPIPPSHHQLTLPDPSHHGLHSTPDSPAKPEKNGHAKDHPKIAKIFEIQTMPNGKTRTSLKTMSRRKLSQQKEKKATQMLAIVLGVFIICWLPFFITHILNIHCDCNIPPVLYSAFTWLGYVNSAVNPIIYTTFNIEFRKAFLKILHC
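PathHunter D2 cells, attached overnight at 37 deg C, received compound in DMSO plus dopamine at EC20 (50 nM final) for 90 min at 37 deg C. Beta-arrestin recruitment was read as luminescence after 1 h with detection reagent at ambient temperature.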
gsp ag = agonists of gsp mutant (McCune-Albright syndrome). 340,000 tested, 0.13% active. Potency, µM (series often up to 76.9 µM), inactives show at the highest dose activation (cAMP increase), most hits filed as activators. gsp mutant cells, cAMP HTRF, 30 min; control for the full effect not named in the record; active = well fitted activation curve with a large enough effect; inconclusive = small, poorly fitted or top-dose-only effect, or another doubt; inactive = no such curve, though single readings can be large or run the other way; cell line not stated here;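 further: phosphodiesterase inhibitor Ro 20-1724 added with compounds to block cAMP breakdown; potency means the concentration at half of the fitted maximal effect; nearly all actives have a fitted effect of over 60% in size; about a fifth of the inactives were tested at one dose only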
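Cells stably selected in G418 were plated at 2000/well, grown 16-24 hr, then given compounds in DMSO with the PDE inhibitor […] (300 uM solution added) for 30 min at 37C; cAMP was read by HTRF.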
Menin MLL FP FL = displaces fluorescein MLL peptide from human menin; Fluorescence polarization, fluorescein-MLL peptide displacement from menin; FP activity change, % at 61.4 µM; 290,000 tested, under 10 active; inconclusive = falling polarisation curve, or a change in total fluorescence; inactive = total fluorescence flat and polarisation flat or rising; no compound was filed as active; the % refers to the polarisation; negative = inhibition;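 further: % of control where 0% means no effect; inhibitors lower the polarisation; unlabelled MLL peptide was the positive control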
Sfp PPTase inh = inhibitors of Bacillus subtilis Sfp phosphopantetheinyl transferase | Q9F4F7 | Biochemical Sfp PPTase activity, qHTS | Potency, µM, for inactives: max response, negative = inhibition, usual class: inhibitors | 310,000 tested, 3.5% active; active means well fitted inhibition curve with a large enough effect; inconclusive means small, poorly fitted or top-dose-only effect, or another doubt; inactive means no such curve, though single readings can be large or run the other way;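 further: the enzyme is Sfp with the accession as filed and its product quenches rhodamine fluorescence; potency means the concentration at half of the fitted maximal effect; 0% = enzyme reaction without inhibitor and -100% = no enzyme wells; top concentration of the series not given in the record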
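Fluorescence-quenching assay with 15 nM Sfp, 5 uM rhodamine-CoA and 12.5 uM BHQ-2-labelled ybbR peptide in pH 7.6 Hepes/MgCl2 buffer. Enzyme was pre-incubated with compound for 15 min at room temperature. Rate was taken from the 30-min fluorescence change (525/598 nm).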
TRPV1 PAM = potentiators of human vanilloid receptor 1 (TRPV1) | Q8NER1 | TRPV1-expressing cells, Fluo-8 calcium influx, capsaicin EC20 potentiation; host cell line not named in the record; control for the full effect not named in the record | potentiation, % at 8.33 µM | 320,000 tested, 0.02% active; active means potentiation above 80%; inconclusive means 30% to 80%; inactive means below 30%; further: 0% is about no effect
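TRPV1-expressing cells were cultured overnight at 35.5C and loaded with Fluo-8 calcium dye for 40 to 90 min at room temperature. After a 10 s baseline, compound was added and calcium influx was read kinetically for 3 min (ex 480/em 520 nm).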
gsp antag = antagonists of gsp mutant (McCune-Albright syndrome). 340,000 tested, 0.4% active. Potency, µM (doses to about 76.9 µM), inactives show at the top dose activity change, negative = inhibition, most hits filed as inhibitors. gsp-mutant cells, cAMP HTRF, 30 min; control for the full effect not named in the record. AID 624288; active = falling curve of any shape with a large fitted effect; inconclusive = falling curve, mostly with a smaller effect; inactive = flat or rising curve; cell line not stated here;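 further: intracellular cAMP measured with PDE inhibitor Ro 20-1724 present during compound exposure; potency means the concentration at half of the fitted maximal effect; on the % scale 0 is the no-effect control and ±100 the full control effect; nearly all actives have a fitted effect of over 65% in size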
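HTRF cAMP measurement after 30 min RT detection following 30 min, 37C compound treatment alongside […] (added as 300 uM solution) in G418-selected cells seeded at 2000/well and grown 16–24 h.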
Starred values were filed as active, the others as inactive; ? = inconclusive; · = not tested or not shown; [ ] = remark or other dose. No enrichment for hits; any-hit rate near 5.1%.

SMILES	ClpP mod	D2 potentiator	gsp ag	Menin MLL FP FL	Sfp PPTase inh	TRPV1 PAM	gsp antag
O=C(Nc1ccc(S(=O)(=O)N2CCCCC2)cc1)C1CC(=O)N(Cc2ccccc2)C1 (stereo not given)	1.0%	-19	-28%	·	·	-9	-12%
CN1CCN(C(=O)CNc2ccc(C(F)(F)F)cc2[N+](=O)[O-])CC1	·	-7	0%[15.4 µM]	-0.9	5%	-10	5%
CSc1ccc(C2NN=C(c3ccccc3)S2)cc1 (stereo not given)	·	-5	18%	·	·	·	-8%
CCc1ccc(-c2nc(CS(=O)CC(=O)NCc3cccnc3)c(C)o2)cc1 (stereo not given)	-17%	-7	-30%[inhibitor]	7.2	-10%	-23	6%
O=C1c2ccc(Br)cc2C(=O)N1c1ccc(Cc2ccncc2)cc1	·	1	1%[15.4 µM]	-1.4	-11%	-9	-15%
CCOC(=O)c1c(C)oc2cc(Br)c(OC(C)C(=O)OCC)cc12 (stereo not given)	-1.3%	-10	9%	1.6	-18%	-4	-16%
Cc1cc(OCc2nc(N)nc(N)c2-c2ccc(Cl)c(Cl)c2)ccc1[N+](=O)[O-]	-9.2%	-7	-3%	·	·	·	-10%
Cn1c(SCC(=O)N2CCN(c3cccc(Cl)c3)CC2)nnc1-c1ccncc1	0.3%	-18	1%	5.2	7%	3	-1%
COc1ccc(CC(=O)Nc2cc(C)ccc2O)cc1OC	0.9%	2	20%	-4.3	4%	21	9%
CC(Sc1nnnn1C)C(=O)NC1CCCc2ccccc21 (stereo not given)	-0.2%	-4	-10%	-0.5	14%	7	7%
O=C(COC(=O)c1ccc(Br)o1)Nc1cccc(S(=O)(=O)N2CCCCCC2)c1	-1.6%	-14	-17%	4.2	6%	15	-4%
NCCn1c(-c2ccccc2)cc(C(=O)O)c1-c1ccccc1F	4.5%	-5	-4%	-1.8	-7%	18	-2%
O=C(NC12CC3CC(CC(C3)C1)C2)c1ccc(COc2ccc(Cl)cc2[N+](=O)[O-])o1	-1.4%	-12	3%	-0.2	10%	·	-10%
O=C(NCCCN1CCCC1=O)C1CCN(S(=O)(=O)c2ccc(F)cc2)CC1	0.6%	-3	-30%	·	·	-5	0%
COC(=O)CSc1nc(-c2ccccc2)nc2ccccc12	0.8%	-3	?	-2.0	-12%	-9	-10%
CCc1ccc(-c2cn3nc(C)c(C)nc3n2)cc1	?	-6	?	-1.7	19%	-19	-11%
Cc1ccc2nc(N3CCN(c4ccccc4F)CC3)c(C=O)c(=O)n2c1	-3.5%	-3	29%	3.6	-7%	-9	9%
COc1ccc(C(C)=O)c(Oc2nc(CN3CCOCC3)nc3scc(-c4cccs4)c23)c1	1.5%	-11	?	7.1	-24%	-4	-8%
COc1ccccc1C1CC(=O)Oc2cc(OC)c(OC)c(OC)c21 (stereo not given)	-1.9%	7	·	0.1[94.6 µM]	-4%	·	-7%
COc1ccc(OC)c(CN2CCN(C(=O)c3ccc(C)c(S(=O)(=O)Nc4ccccc4OC)c3)CC2)c1	-0.6%	-7	21%	·	·	·	-30%
Cc1[nH]nc2c1C(C1CC=CCC1)C(C#N)=C(N)O2 (stereo not given)	3.7%	-19	-41%[inhibitor]	0.4	-6%	5	2%
CC(NC(=O)c1ccc(CS(C)(=O)=O)cc1)c1ccc(-n2ccnc2)cc1 (stereo not given)	1.2%	-16	-124%[inhibitor]	·	9%	2	15%
COc1ccc(-n2cc(-c3ccccc3)c3c(NN4CCOCC4)ncnc32)cc1	-0.6%	4	-12%[15.4 µM]	0.1	2%	0	-10%
CC(=O)c1cccc(N(CC(=O)Nc2ccccc2C(=O)N2CCCC2)S(C)(=O)=O)c1	2.0%	-2	-2%	5.4	9%	18	3%
COc1cc(C(=O)NC2CCN(C)CC2)ccc1Nc1ncc2c(n1)N(CCc1ccccc1)CCC(=O)N2C	-18%	-5	·	·	·	·	-6%
More records.
SMILES	ClpP mod	D2 potentiator	gsp ag	Menin MLL FP FL	Sfp PPTase inh	TRPV1 PAM	gsp antag
COc1ccccc1/C=N/NC(=O)CC(=O)NC1CCCCC1	-4.7%	-4	-2%	3.3	13%	2	-8%
CC1=C(C(=O)NCc2ccccc2)C(c2cccs2)n2ncnc2N1 (stereo not given)	-3.2%	15	-31%	-3.1	8%	11	5%
CCOC(CNC(=O)Cc1c(C)nc2c(-c3ccccc3)c(C)nn2c1C)OCC	·	-14	-39%[inhibitor]	5.2	6%	-6	-4%
Cc1nn(Cc2c(F)c(F)c(F)c(F)c2F)c(C)c1NC(=O)c1nn(C)c(C)c1Br	-1.1%	9	-8%	·	11%	-4	2%
O=C(CSc1nnnn1-c1ccccc1)Nc1nc(-c2ccccc2)ns1	0.9%	-10	5%	-1.3	17%	13	-10%
Cc1cccc2c(=O)n3c(nc12)CCCCC3	-0.9%	-12	-18%	-0.9	18%	6	-15%
CCc1ccc(-c2csc(NC(=O)c3cccnc3)n2)cc1	3.6%	7	-5%	2.6	2%	25	-3%
Cc1nc(CCNS(=O)(=O)c2cccs2)cs1	-1.1%	-17	13%	2.2	15%	12	4%
CCCCS(=O)(=O)Nc1ccc(N2CCOCC2)c(S(=O)(=O)N2CCOCC2)c1	1.5%	-16	-17%	-1.6	8%	7	7%
Cc1ccc(C23CC4CC(CC(C(N)=O)(C4)C2)C3)cc1	0.2%	-10	9%[15.4 µM]	-5.4	18%	-2	-22%
Nc1ccc2c(c1)C(=NO)c1cc([N+](=O)[O-])ccc1-2	1.8%	-18	1%	·	·	·	-14%
OC(c1ccccc1)(c1ccccc1)C1CCN(C(=S)NC2CCCC2)CC1	·	4	1%[15.4 µM]	-1.5	16%	5	-12%
COc1cccc(C(c2c(N)n(C)c(=O)n(C)c2=O)C(C)[N+](=O)[O-])c1 (stereo not given)	-2.0%	-18	2%	1.8	8%	4	-2%
CC(=O)N1CCN(S(=O)(=O)c2cccc(C(=O)OCC(=O)Nc3c(Cl)cccc3C(F)(F)F)c2)CC1	-0.5%	-5	-36%[inhibitor]	·	·	·	-4%
CCOC(=O)C1CCCCN1Cc1ccc(OC)c(OC)c1 (stereo not given)	·	-7	19%	-4.3	-13%	-16	-3%
O=S(=O)(Cc1ccccc1)N1CCCC(c2nc(-c3ccc(F)cc3)no2)C1 (stereo not given)	-0.8%	-10	1%	3.0	7%	-3	-7%
O=C1c2ccccc2NC(c2ccco2)N1O (stereo not given)	-1.0%	11	-71%[inhibitor]	?	-7%	30	-7%
O=C(Nc1cccc(NC(=O)c2cncc(Br)c2)c1)c1cncc(Br)c1	0.8%	19	1%[15.4 µM]	-0.8	-12%	8	-11%
CC1=C(C)CC(C(=O)N2CCN(C/C=C/c3ccccc3)CC2)C(C(=O)O)C1 (stereo not given)	·	-6	1%	-3.1	15%	3	-4%
O=C(Nc1ccc(Br)cc1Cl)N1CCOCC1	-1.4%	-2	-21%	-1.4	24%	1	2%
O=C(C1CCCN(Cc2ccccc2Br)C1)N1CCCCC1 (stereo not given)	1.3%	-25	25%	-4.4	-24%	?	-1%
CCc1ccc(NSc2ccccc2[N+](=O)[O-])cc1	1.0%	3	-5%	11	6%	-14	-11%
O=C(c1cc2c(=O)n3ccccc3nc2s1)N1CCc2ccccc2C1	·	·	·	17	?	-10	·
Cc1ccc(CNS(=O)(=O)c2ccc(Cl)s2)cc1	-5.1%	-12	-25%	·	·	·	·
O=C(N/N=C/c1ccc2c(c1)OCO2)C(=O)Nc1ccc2ccccc2c1	·	·	·	2.2	4%	1	·
Following part:
SMILES	ClpP mod	D2 potentiator	gsp ag	Menin MLL FP FL	Sfp PPTase inh	TRPV1 PAM	gsp antag
CCOC(=O)CCNC(=O)N1CCCC(N(C)CCc2ccc(OC)c(OC)c2)C1 (stereo not given)	-1.2%	-4	?	1.5	21%	6	6%
Cc1cccc(NC(=O)COC(=O)c2ccc([N+](=O)[O-])o2)c1C	·	15	-6%[15.4 µM]	-0.7	9%	2	-5%
CC1(C)Cc2c(sc(NC(=O)C(=O)NCCCN3CCOCC3)c2C(N)=O)CO1	2.3%	-6	-14%	·	?	-4	16%
CCOC(=O)C1=C(C)N(C)C(C)=C(C(=O)OCC)C1c1ccc(C(=O)OC)cc1	-14%	-8	10%	3.9	-15%	-12	-5%
Cc1ccc(OCCN2C(=O)C(=O)c3cc(C)ccc32)cc1	0.8%	-21	-3%	0.7	7%	-5	1%
CCCN1Cc2cccc(C(=O)Nc3ccc(-c4nc5ccccc5[nH]4)cc3)c2C1=O	?	-18	-45%[inhibitor]	1.2	4%	1	9%
CCOc1ccc(-n2c(SCC(=O)N3CCc4ccccc43)nnc2-c2c[nH]c3ccccc23)cc1	-5.4%	-8	-34%[inhibitor]	4.1	-1%	7	2%
COc1ccccc1NC(=S)N1CCN(C/C=C/c2ccccc2)CC1	-3.6%	-22	-40%[15.4 µM]	-0.1	0%	19	7%
COc1ccccc1NC(=S)NC(=O)C1CC1	0.9%	-20	-1%	5.5	10%	7	3%
O=C(c1ccoc1)N1CCC2(CC1)Oc1ccc(F)cc1C(=O)C21CC(c2ccccc2)=NO1 (stereo not given)	-7.2%	-8	0%	5.3	-8%	29	-16%
O=C(O)CC(c1cccc2ccccc12)n1cccc1 (stereo not given)	0.6%	15	1%	2.3	-9%	7	-10%
CCn1c(CSCc2ccc(Cl)cc2)nnc1SCC(=O)Nc1cccc(C(=O)O)c1	-1.3%	-19	2%	0.1	12%	0	6%
COC(Cn1cc(C)c(=O)[nH]c1=O)OC	-1.3%	4	4%[15.4 µM]	0.8	-2%	-8	16%
Cc1ccc2c(c1)[nH]c1c(=O)n(CCN3CCNCC3)cnc12	?	-17	-32%	-2.2	16%	-4	6%
Cc1c(NC(=O)C(C)Oc2ccc(Br)cc2)c(=O)n(-c2ccccc2)n1C (stereo not given)	·	-4	?	·	·	·	2%
